# Source: PubChem BioAssay (ICCB-Longwood Screening Facility, Harvard Medical School)
# Anaer choline gr: growth inhibitors of anaerobic choline-fed gram-negatives, minimal medium, absorbance; 55,000 tested, 0.2% active; calls only; Gram-negative bacterium anaerobic choline minimal medium; hits give low values; many inactives read as strong as hits in the columns shown;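 active = growth z-score on choline under -2 at 7 or 20 h with little or no fall on glycerol, limits in tiers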;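 note: stock transfer was 300 nL into about 50 µL; the organism is E. coli; final concentration not given here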
# Anaer choline gr early: also measured in Anaer choline gr; calls as there; z-score; measured here: choline growth z-score, timepoint 1;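 score of optical density at 7 h as mean of two plates; lower means less growth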
# * hit, by the source's call; i = inactive; & = joins results of further samples. The list is partial. The share of hits here may be higher or lower than overall.
# Order of values: Anaer choline gr early	Anaer choline gr
- Cc1cc(N2CCN(S(=O)(=O)c3cc(F)ccc3F)CC2)nc(N2CCOCC2)n1
 : 0.65	i
- CCCCNC(=O)Cc1c(C)nc2nc(-c3ccccc3)nn2c1C
 : -1.33	i
- CC(C(=O)NCCN(C)C)N1C(=O)CCCc2ccccc21 (stereo unspecified)
 : -0.89	i
- Cc1ccc(-c2cc(C(F)(F)F)n3nc(C(=O)NCC4CCCO4)nc3n2)cc1 (stereo unspecified)
 : 0.67	i
- CC(=O)Nc1cccc(-c2nc(-c3ccc4c(c3)ncn4CCC(=O)N3CCCC3)no2)c1C
 : -0.33	i
- Cc1nc2ncccc2c(=O)n1-c1cccc(NC(=O)CCC2CCCCC2)c1
 : -0.17	i
- COc1ccc(S(=O)(=O)N2CCN(c3cc(N4CCCCC4)nc(C)n3)CC2)c(C)c1C
 : 0.15	i
- Cc1cc(C)cc(NC(=O)CCc2nc(CSc3nc(-c4ccccc4)cs3)no2)c1
 : 1.73	i
- Cc1ccc(C(=O)Nc2ccc3c(c2)CC(=O)N3C)cc1C
 : 0.11	i
- Cn1nc(-c2nc(-c3ccccc3)no2)c2c1CCN(S(=O)(=O)c1cnc[nH]1)C2
 : -0.72	i
- CCCS(=O)(=O)N1CCCc2ccc(NC(=O)CN3C(=O)c4ccccc4C3=O)cc21
 : -0.49	i
- CC1CCn2c(nc3cc(C(=O)N4CCOCC4)ccc32)C1 (stereo unspecified)
 : -0.45	i
- O=C(Nc1ccccc1)c1nnc(C2CCN(C(=O)NCC3CCCO3)CC2)s1 (stereo unspecified)
 : -1.48	i
- COc1ccc(C(=O)N2CCN(c3nc(-c4ccccc4)no3)CC2)cc1OC
 : 0.1	i
- Fc1ccc(-c2noc(CSc3ccc(-c4cccc(Br)c4)nn3)n2)cc1
 : 1.04	i
- CC1CCN(CCCNC(=O)C2CCc3sc(C(=O)N4CCCC4)cc3C2)CC1 (stereo unspecified)
 : 0.21	i
- Cc1ccc(-c2cc(N3CCN(S(=O)(=O)c4ccc(C(C)C)cc4)CC3)ncn2)cc1
 : 0.33	i
- CNC(=O)Cc1ccc(-n2c(=O)c3ccccc3n(CC(=O)Nc3ccc(C(=O)OC)cc3)c2=O)cc1
 : -0.65	i
- CC1(C)C(=O)N(CC(=O)NCc2ccccc2Cl)c2ccc(S(=O)(=O)N3CCCC3)cc21
 : -0.2	i
- Cc1ccc2c(c1)-c1onc(C(=O)N3CCC(Cc4ccccc4)CC3)c1CO2
 : 1.1	i

# Reprinted from the part before: two entries; new compounds follow.
# Order of values: Anaer choline gr early	Anaer choline gr
- CC1(C)C(=O)N(CC(=O)NCc2ccccc2Cl)c2ccc(S(=O)(=O)N3CCCC3)cc21
 : -0.2	i
- Cc1ccc2c(c1)-c1onc(C(=O)N3CCC(Cc4ccccc4)CC3)c1CO2
 : 1.1	i
- Cc1sc(C)c(S(=O)(=O)N2CCc3ccccc3C2)c1-c1ccno1
 : 2.46	i
- O=C(C1CCN(c2cncnc2N2CCOCC2)CC1)N1CCOCC1
 : -0.27	i
- COC(=O)c1ccc2c(=O)n(-c3ccc(F)cc3)c(N3CCN(c4ccc(F)cc4)CC3)nc2c1
 : 0.2	i
- CCn1c(=O)c2sccc2n2c(SCc3ccc(F)cc3Cl)nnc12
 : 0.63	i
- CCc1nc2nc(C)c(CC(=O)Nc3ccc(Br)cc3)c(C)n2n1
 : -0.65	i
- Cc1nc(-c2ccc(C)c(S(=O)(=O)N3CCC(C(=O)N4CCN(c5ccccc5)CC4)CC3)c2)no1
 : 0.29	i
- Cc1ccc2c(c1)C=C(C(=O)Nc1ncc(Cc3ccccc3F)s1)C=CO2
 : -0.25	i
- Cc1ccc(CNC(=O)Cn2c(=O)n(-c3ccc(C)cc3)c(=O)c3c2cnn3C)cc1
 : 0.82	i
- O=C(COc1ccc(F)cc1)Nc1nnc(C2CC(=O)N(c3ccc(F)cc3)C2)o1 (stereo unspecified)
 : 0.32	i
- CCc1cccc(C)c1NC(=O)Cn1nc2c3c4c(sc3ncn2c1=O)CCCC4
 : 0.68	i
- CCSc1nc2ccc(NS(=O)(=O)c3cc(F)ccc3F)cc2s1
 : -0.3	i
- CCCCCCCCCCCCC/C=C/[C@@H](O)[C@H](CO)NCCCCCCCC
 : -0.45	i
- Cn1c(=O)c(N2CCC(C(=O)NCCc3c[nH]c4ccc(Cl)cc34)CC2)nc2ccccc21
 : -0.38	i
- Cc1cc(NC(=O)COc2ccc(C(C)C)cc2)n(-c2nc3c(c(=O)[nH]2)CCC3)n1
 : -0.07	i
- CCc1nnc(-c2cc(NS(=O)(=O)CC)c(C)s2)o1
 : -0.08	i
- COc1cccc(NC(=O)NC2CCN(c3cc(C)nc4ncnn34)CC2)c1
 : 4.92	i
- CC(c1nnc(SCC(=O)Nc2ccc(Br)cc2)n1C)N1C(=O)COc2ccccc21 (stereo unspecified)
 : -0.04	i
- Cc1oc2ncnc(N3CCCC(C(=O)N4CCC(C)CC4)C3)c2c1C (stereo unspecified)
 : -0.65	i
- CC(C)NC(=O)CSc1nnc(-c2cccnc2)o1
 : -0.37	i
- O=C(NC1CC1)c1ccc2c(=O)nc3c(-c4cccc(F)c4)n[nH]n3c2c1
 : -0.43	i
- CCNC(=O)N1CCc2cc(S(=O)(=O)NC(C)(C)CC)ccc21
 : -0.19	i
- COCCCNC(=O)Cn1ccc2c(SCc3ccc(OC)cc3)nccc21
 : 0.23	i
- Cc1ccc(CNC(=O)CN2C(=O)C(C)(C)c3cc(S(=O)(=O)N4CCCC4)ccc32)cc1
 : 0.07	i
- COc1ccc(-c2nc3n(c2C(=O)Nc2nc4ccc(F)cc4s2)CCS3(=O)=O)cc1
 : 0.19	i
- Cc1nc(-c2cccc(N3CC(C(=O)Nc4cccc(Br)c4)CC3=O)c2)no1 (stereo unspecified)
 : 0.21	i
- CCCNC(=O)CN1C(=O)CSc2sc(S(=O)(=O)N3CCCC3)cc21
 : 0.21	i
- CCCc1nnc2n1NC(c1ccc(C)cc1)C(C(=O)Nc1ccc(CC)cc1)S2 (stereo unspecified)
 : 0.26	i
- COc1ccccc1N1CCN(CCCCN2C(=O)CCC2=O)CC1
 : 0.65	i
- O=C(Nc1nnc(SCc2cc(=O)n3cc(Cl)ccc3n2)s1)C1CCCCC1
 : -0.21	i
- Cc1ccc(C2C3=C(CC(C)(C)CC3=O)Nc3ccccc3N2C(=O)C(C)C)cc1 (stereo unspecified)
 : 0.23	i
- COc1ccc(CCNS(=O)(=O)c2cc3c4c(c2)CCN4C(=O)CC3)cc1OC
 : 0.26	i
- CC(C)(C)NC(=O)Cn1nc(C(=O)N2CCCC2)ccc1=O
 : -1.9	i
- C=CCNc1oc(-c2ccc(S(=O)(=O)N3CCC(C)CC3)cc2)nc1C#N
 : 0.63	i
- O=C(NC1CCCCC1)N1CCCC1c1ccc(F)cc1 (stereo unspecified)
 : 0.79	i
- O=C(C1CCCCC1)N1CCC(c2nc(-c3ccc(F)cc3)no2)CC1
 : -0.59	i
- CCn1c(=O)c2sc(N3CCCC3)nc2n(CC(=O)Nc2ccccc2)c1=O
 : -2.77	i
- Cc1cc(Nc2ccc(Cl)cc2C)nc(-n2nc(C)cc2C)n1
 : 0.09	i
- Cc1cc(=O)n2[nH]c(CN(C(=O)CC(C)C)c3ccc(F)cc3)nc2n1
 : -0.17	i
- COc1ccc(-c2nn3c(N4CCN(Cc5ccccc5)CC4)cc(C)nc3c2C)cc1OC
 : 0.53	i
- Cc1cc(-c2c(C)sc(C)c2S(=O)(=O)N2CCN(c3ccccc3F)CC2)n[nH]1
 : 0.41	i

# Shown with bars between the fields: entries from further up
mol | Anaer choline gr early | Anaer choline gr
Cn1nc(-c2nc(-c3ccccc3)no2)c2c1CCN(S(=O)(=O)c1cnc[nH]1)C2 | -0.72 | i
COc1ccc(CCNS(=O)(=O)c2cc3c4c(c2)CCN4C(=O)CC3)cc1OC | 0.26 | i
Cc1nc(-c2ccc(C)c(S(=O)(=O)N3CCC(C(=O)N4CCN(c5ccccc5)CC4)CC3)c2)no1 | 0.29 | i
CCCCNC(=O)Cc1c(C)nc2nc(-c3ccccc3)nn2c1C | -1.33 | i
CNC(=O)Cc1ccc(-n2c(=O)c3ccccc3n(CC(=O)Nc3ccc(C(=O)OC)cc3)c2=O)cc1 | -0.65 | i
CC(C)NC(=O)CSc1nnc(-c2cccnc2)o1 | -0.37 | i

# Continuation:
# Order of values: Anaer choline gr early	Anaer choline gr
- Cc1nn(Cc2cccc(Cl)c2)c(=O)c2noc(C)c12
 : -0.84	i
- C=CCn1c(SCC(=O)OC(C)(C)C)nc2c(-c3ccccc3)cn(C)c2c1=O
 : 0.77	i
- CN(C)S(=O)(=O)c1ccc2c(c1)nnn2CCCC(=O)N1CCN(c2cccc(Cl)c2)CC1
 : -0.05	i
- COc1ccc(-c2nc(SCC(=O)Oc3ccccc3)n3[nH]c(=O)cc3n2)cc1
 : -0.57	i
- CCCCC[C@H](O)CC[C@@H]1[C@H]2Cc3cccc(OCC(=O)O)c3C[C@H]2C[C@H]1O
 : 0.91	i
- Cc1noc2ncnc(N3CCCC(C(=O)NC4CCCC4)C3)c12 (stereo unspecified)
 : -1.38	i
- CC1CCN(S(=O)(=O)c2ccc3c(c2)oc(=O)n3CC(=O)N2CCC(N3CCCCC3)CC2)CC1
 : 0.58	i
- COc1ccc(CN=C2Nc3ccccc3NC23CCCCC3)cc1
 : -0.22	i
- O=C(CSc1nnc2ccc(-c3ccccc3)nn12)NCCc1ccccc1
 : -0.58	i
- O=C1CCCc2cc(S(=O)(=O)N3CCC(C(=O)NCc4ccc(Cl)cc4)CC3)ccc2N1
 : -0.34	i
- CCC(=O)Nc1cc(-c2ccccc2)nn(CC(=O)Nc2cccc(CC)c2)c1=O
 : 1.56	i
- CC1CCN(C(=O)C2CCN(S(=O)(=O)c3cccc4cccnc34)CC2)CC1
 : 0.24	i
- O=C(c1ccc(Nc2nn3c(=O)c4ccccc4nc3s2)cc1)N1CCc2ccccc2C1
 : -0.54	i
- Cc1ccc(N2CC(C(=O)Nc3cc4c(cc3N3CCCCC3)n(C)c(=O)c(=O)n4C)CC2=O)cc1 (stereo unspecified)
 : 0.03	i
- COc1cc(Cl)c(C)cc1-n1cc[nH]c(=O)c1=O
 : -1.91	i
- CN1CCc2c(sc3c2CN(C(=O)Nc2ccc4c(c2)OCCO4)C(c2ccc(Cl)cc2)c2cccn2-3)C1 (stereo unspecified)
 : -0.36	i
- Cc1cc(C(=O)Nc2ccc(C)c(C)c2)n[nH]1
 : -1.9	i
- CC(=O)N(CC(O)CO)c1c(I)c(C(=O)NCCO)c(I)c(C(=O)NCC(O)CO)c1I (stereo unspecified)
 : 0.53	i
- O=C(Nc1ccccc1Cl)N1CCN(C(=O)c2nsc3ccccc23)CC1
 : -0.13	i
- Cc1cc(C)n2nc3nc(N4CCC(C)CC4)nc(-c4ccccc4)c3c2n1
 : -2.17	i
- N#CC1=CN(c2ccc(Cl)cc2F)c2cc(Cl)ccc2S1(=O)=O
 : 0.77	i
- Cc1nc(N2CCN(c3ccccn3)CC2)nc2oc(-c3ccccc3)nc12
 : 1.2	i
- CCCNS(=O)(=O)c1c(C)[nH]c(C)c1-c1nc(C2CC2)no1
 : 0.65	i
- NC(=O)CSc1nnc2n(CCC(=O)NC3CCCC3)c(=O)c3ccccc3n12
 : -0.71	i
- Cc1cc(C)n(-c2nnc(N3CCN(c4cccc(Cl)c4)CC3)c3ccccc23)n1
 : 1.02	i
- O=C(c1cn2c(n1)CCCC2)N1CCC2(CC1)OCCO2
 : 0.6	i
- Cc1cccn2c(=O)c(C(=O)NCC3CCCO3)c(O)nc12 (stereo unspecified)
 : -0.14	i
- Cc1cn(C)c(CC(=O)N2CCC(N3CCCCC3)CC2)c1C(=O)O
 : 0.6	i
- CC(Cn1cnc2c([nH]c3ccc(F)cc32)c1=O)c1ccccc1 (stereo unspecified)
 : 0.87	i
- CCOc1ccc(-c2ccc(SCc3nc(-c4cccc(Br)c4)no3)nn2)cc1
 : 1.72	i
- COc1cccc(NC(=O)C2CCN(Cc3cnn(-c4ccccc4)c3-n3cccc3)CC2)c1
 : -1.91	i
- CCOC(=O)C1=C(C)NC(C)=C(C(=O)OCC)C1c1c(F)cccc1Cl
 : 0.15	i
- Cc1c(C)c2cc3c(=O)ccoc3c(C)c2oc1=O
 : 0.87	i
- CC1CCN(S(=O)(=O)c2ccc(CNC(=O)c3cnccn3)s2)CC1
 : -1.31	i
- CC(C)(C)c1ccc(S(=O)(=O)Nc2ccc(Cn3cnc(-c4nc(-c5ccc(F)cc5)no4)c3)cc2)cc1
 : -0.33	i
- O=C(Cn1c(C(=O)c2ccc(Br)cc2)nc2ccccc21)NCCc1ccccc1
 : 1.23	i
- CCOC(=O)c1ccccc1NC(=O)N(CC)c1nc(-c2ccc(Br)cc2)cs1
 : -0.95	i
- Cc1cccc(C2C3=C(CC(c4ccc(Cl)cc4)CC3=O)Nc3onc(C)c32)c1 (stereo unspecified)
 : -0.12	i
- O=S1(=O)N=CN(c2ccc(Cl)cc2)c2ncccc21
 : -1.38	i
- COc1ccc(-c2nnc3sc(-c4cnccn4)nn23)cc1OC
 : -0.61	i
- Cc1cccc(-c2nnc(-c3nc(NC4CC4)c4ccccc4n3)o2)c1
 : -0.58	i
- Cc1ccn2c(=O)c(NC(=O)c3ccc(C(C)(C)C)cc3)c(C)nc2c1
 : 0.44	i
- Cc1nc2ncccc2c(=O)n1-c1cccc(NC(=O)c2ccc(Cl)cc2)c1
 : 1.71	i
- O=C(Nc1nnc(SCc2cc(=O)n3ccccc3n2)s1)c1ccccc1Cl
 : -0.54	i
- Cc1ccnc(N2CCCC(C(=O)Nc3ccc(S(N)(=O)=O)cc3)C2)n1 (stereo unspecified)
 : -0.73	i
- COc1ccc(CNC(=O)CCCc2nnc3n4nc(C)nc4c4ccccc4n23)cc1
 : 0.74	i
- Cc1oc(-c2cccc(Cl)c2)nc1CN1CCNCC1
 : 0.01	i
- COc1cccc(C2CC(=O)Nc3c2c(-c2ccccc2)nn3-c2ccccc2)c1OC (stereo unspecified)
 : 0.64	i
- COc1ccc(CCN(C)CCCC(C#N)(c2cc(OC)c(OC)c(OC)c2)C(C)C)cc1OC (stereo unspecified)
 : 0.13&0.28	i
- COc1ccc(CN2CCCC2c2cc(C)on2)cc1Br (stereo unspecified)
 : 0.51	i
